Compound activity as filed in PubChem BioAssay.
VACV Venus inh: qHTS for Stage-Specific Inhibitors of Vaccinia Orthopoxvirus: Venus Reporter Primary qHTS; Vaccinia virus Venus reporter expression, fluorescence; Potency, µM (series often up to 36.5 µM), inactives show at the top dose activity change, negative = inhibition, usual class: inhibitors; actives 0.46% (n = 330,000); active means well fitted inhibition curve with a large enough effect; inconclusive means small, poorly fitted or top-dose-only effect; inactive means no such curve, though single readings can be large or run the other way; tested in A549 cells; note: nearly all actives have a fitted effect of over 30% in size; inactives centre near -10
VACV mCherry inh: qHTS for Stage-Specific Inhibitors of Vaccinia Orthopoxvirus: mCherry Reporter Primary qHTS. Vaccinia virus mCherry reporter infection, fluorescence; about a quarter of the inactives have no number. Potency, µM (series often up to 36.5 µM), without a hit: at the highest dose activity change, negative = inhibition, usual class: inhibitors. actives 0.63% (n = 310,000). AID 720579, 2013; active = well fitted inhibition curve with a large enough effect; inconclusive = small, poorly fitted or top-dose-only effect; inactive = no such curve, though single readings can be large or run the other way; tested in A549 cells; note: nearly all actives have a fitted effect of over 35% in size; inactives centre near -10
The depositor's hits bear a star; i = inactive; ? = inconclusive; / = no result given; & = joins results of further samples; [ ] = remark or other dose. % is set by controls: 0 for no effect and ±100 for the full control effect; potency is the fitted concentration of half-maximal effect.

Sample of the layout:
SMILES	VACV Venus inh	VACV mCherry inh
COc1ccc(C(=O)N2CCC2(C)C(=O)O)cc1F (centres undefined)	-8%	i
COc1ccccc1CCNC(=O)c1csc2c1CCCC2	-16%	-19%
CCCCCc1cc(=O)oc2c(C(CCN3CCCC(C)C3)c3ccc(N(C)C)cc3)c(OC)cc(OC)c12 (centres undefined)	?	11µM*
CC(=O)Nc1ccc(SCCN2CC[C@@H](O)CCC2=O)cc1	-6%&-28%	-14%
CCCCn1c(N)c(N(CC(C)C)C(=O)CSCC(=O)Nc2cccc(C)c2)c(=O)[nH]c1=O	-13%	i
CC(=O)Nc1cccc(C(=O)/C=C/c2cccs2)c1	-17%	?

The list itself, from the first entry:
SMILES	VACV Venus inh	VACV mCherry inh
COc1ccc(C(=O)N2CCC2(C)C(=O)O)cc1F (centres undefined)	-8%	i
COc1ccccc1CCNC(=O)c1csc2c1CCCC2	-16%	-19%
CCCCCc1cc(=O)oc2c(C(CCN3CCCC(C)C3)c3ccc(N(C)C)cc3)c(OC)cc(OC)c12 (centres undefined)	?	11µM*
CC(=O)Nc1ccc(SCCN2CC[C@@H](O)CCC2=O)cc1	-6%&-28%	-14%
CCCCn1c(N)c(N(CC(C)C)C(=O)CSCC(=O)Nc2cccc(C)c2)c(=O)[nH]c1=O	-13%	i
CC(=O)Nc1cccc(C(=O)/C=C/c2cccs2)c1	-17%	?
CC(=O)N1C(C(=O)O)Cc2c([nH]c3ccccc23)C1C (centres undefined)	-10%	-6%
COc1ccc(/C=C2/C(=O)ON=C2C)cc1Br	-26%	-17%
Cc1cccc(C(=O)NNC(=O)CCCCC(=O)NNC(=O)c2cccc(C)c2)c1	-7%	-23%
COc1ccc(Oc2ncnc3c2oc2ccccc23)cc1	-15%	-15%
COc1cc(N)c(Cl)cc1C(=O)OCC(=O)N1CCCC1	3%	-5%
CSc1nnc(CCNC(=O)/C=C/c2cccc(F)c2)n1-c1ccc(F)cc1	-14%	i
CCOC(=O)[C@]12Cc3cc(OC)ccc3[C@H]1N(Cc1ccccc1)C(=O)c1cc(OC)ccc12	-7%	-10%
COC(=O)c1cc(CNC(=O)c2ccc(N(C)C)cc2)cc(NC(=O)c2ccccc2Cl)c1	0%	-3%
CCOC(=O)c1c(N)sc2c1CCC(C)C2 (centres undefined)	-7%	/
Cc1cc(NC(=O)c2cccn(Cc3cccc(Cl)c3)c2=O)no1	-10%	0%
CCCS(=O)(=O)Nc1c(C(=O)O)[nH]c2ccccc12	11%	-3%
O=C(c1ccc(S(=O)(=O)c2cccc(Cl)c2)c([N+](=O)[O-])c1)N1CCN(c2ccccn2)CC1	-8%	-17%
CCn1c(SCC(=O)Nc2nc(-c3ccccc3)cs2)nc2c1c(=O)n(C)c(=O)n2C	1%	3%
Cc1ccc(CCC(=O)NCc2ccccc2)o1	5%	i
COc1ccc(S(=O)(=O)N2CCCC(C(=O)NCc3ccncc3)C2)cc1 (centres undefined)	0%	i
O=C(CCN1CCCCC1)NNC(=S)NC(=O)c1ccc(Br)cc1	-7%	-1%
NC(=O)C1=C[C@@H](c2ccc(C(F)(F)F)cc2)C[C@@H](OCCCCO)O1	-17%	-6%
CC(C)Cc1ccc(C#N)c(SCC(N)=O)n1	-18%	-5%
COc1cc(NC(C)CCc2ccccc2)cc(OC)c1OC (centres undefined)	-5%	i
CCCCOc1ccc(S(=O)(=O)NC(=O)C2(C)CCN2C(=O)Cc2ccccc2Cl)cc1 (centres undefined)	1%	-13%
COc1ccc2c(c1)c(=O)cc(C)n2CC(=O)NCc1ccco1	8%	-1%
O=C(Nc1ccnn1C1CCN(Cc2ccc(C#CCCO)cc2)CC1)c1cccc(F)c1	-4%	-13%
Cc1ccc(NC(=O)C(=O)NCCN2CCN(S(C)(=O)=O)CC2)cc1	-10%	-11%
O=C(NCCc1cccs1)C1CC(c2cccc([N+](=O)[O-])c2)=NO1 (centres undefined)	-11%	?
O=C(CCC1CCCC1)N1CCN(S(=O)(=O)c2ccc(Br)cc2)CC1	-6%	i
COc1ccc(Cl)cc1NC(=O)CCNS(=O)(=O)c1cccc2nonc12	-4%	-2%
CCCCCN(C(=O)CCC(=O)OCc1cccc(F)c1)c1c(N)n(CCCC)c(=O)[nH]c1=O	-15%	0%
COc1cc(/C=C/C(=O)OCC(=O)NCc2ccc3c(c2)OCO3)cc(OC)c1OC	1%	-8%
COc1ccc(Cl)cc1NC(=O)c1cc2ccccn2n1	-4%	-8%
CNc1ccc(OC)cc1-n1cnc(-c2ccc([N+](=O)[O-])cc2)c1	-5%	?
CCCCCCC#Cc1ccc2c(c1)COc1c3ccccc3nn1-2	-14%	-21%
CC(=O)Nc1cccc(NC(=O)NC2CC(=O)N(c3ccc4c(c3)OCCO4)C2)c1 (centres undefined)	-3%	-3%
C=CCOC(=O)C1=C(C)NC(C)=C(C(=O)OCC=C)C1/C=C/c1ccccc1	-13%	-27%
COc1ccc(N2CC(C)Cn3c2nc2c3c(=O)n(Cc3ccccc3)c(=O)n2C)c(OC)c1 (centres undefined)	-16%	-5%
N#Cc1cc(C(=O)c2ccccc2O)cn(-c2nccs2)c1=O	-1%	-25%
Cc1nnc(SCC(=O)N(CC(C)C)c2c(N)n(CC(C)C)c(=O)[nH]c2=O)n1-c1ccccc1	3%	-12%
N#CCC(=O)N/N=C/c1coc2ccccc2c1=O	-6%	-15%
O=C(NCc1ccccn1)C1Nc2ccc(C(F)(F)F)cc2C2C=CCC12 (centres undefined)	-26%	-19%
Fc1ccc2c(c1)-c1c(cnc3cc(-c4ccc(Cl)cc4)nn13)CO2	-2%	8%
N#CCCN(C(=O)COC(=O)C1CCN(S(=O)(=O)c2ccc3c(c2)OCCO3)CC1)c1ccccc1	-6%	i
CCOC(=O)C1CCN(C(=O)c2cc(OCC)c(OCC)c(OCC)c2)CC1	-12%	-11%
CCOC(=O)C1CCCN(C(=O)Nc2c(-c3ccccc3)noc2C)C1 (centres undefined)	-14%	i

In the list so far, four have a cyano group:
SMILES	VACV Venus inh	VACV mCherry inh
CC(C)Cc1ccc(C#N)c(SCC(N)=O)n1	-18%	-5%
N#Cc1cc(C(=O)c2ccccc2O)cn(-c2nccs2)c1=O	-1%	-25%
N#CCC(=O)N/N=C/c1coc2ccccc2c1=O	-6%	-15%
N#CCCN(C(=O)COC(=O)C1CCN(S(=O)(=O)c2ccc3c(c2)OCCO3)CC1)c1ccccc1	-6%	i

Continued:
SMILES	VACV Venus inh	VACV mCherry inh
COc1ccc(C)cc1-n1nnnc1SCc1nc(N)nc(N(C)C)n1	-6%	13%
Cc1cc(OCC(=O)Nc2ccc(-c3nc4cc(Cl)ccc4o3)cc2)cc(C)c1Cl	5%	0%
CCOc1ccccc1N(CC(=O)NC1CCCC1)C(=O)CCCC(=O)Nc1ccccn1	-15%	/
Cc1nc(Cl)sc1C(=O)Nc1ccc2ccccc2c1	-7%	i
CC(C)(C)c1ccccc1NC(=O)c1cnn2c(C(F)F)cc(-c3ccccc3)nc12	5%	0%
Cc1c2cnn(CC(=O)N3CCC4(CC3)OCCO4)c(=O)c2c(C)n1Cc1cccc(Cl)c1	-16%	-5%
Cn1nc(C(F)(F)F)c(C#N)c1N1CCN(c2ccc(F)cc2)CC1	-27%	/
Cc1ccc(SCC(=O)OC(C)C(=O)NC2(C#N)CCCCC2)cc1 (centres undefined)	-10%	-13%
COCCN(C(=O)COC(=O)CC(C)c1ccccc1)c1c(N)n(Cc2ccccc2)c(=O)[nH]c1=O (centres undefined)	-3%	-1%
COc1ccc(N2CCN(Cc3cc(=O)oc4cc(-c5ccccc5)c(O)cc34)CC2)cc1	-22%	/
COc1ccc(N2CCN(C(=O)c3ccc(S(=O)(=O)N4CCOCC4)cc3)CC2)cc1	-15%	i
COc1ccc(NC(=O)c2cccc(N3C(=O)C4CC=C(C)CC4C3=O)c2)c(OC)c1 (centres undefined)	-4%	-24%
CC(C)Cn1c(C2CC(=O)N(c3ccccc3Cl)C2)nc2ccccc21 (centres undefined)	4%	-13%
CCOC(=O)c1c(C)oc2ncnc(Nc3cc(C)cc(C)c3)c12	-8%	-7%
CCc1ccc(N2C(=O)Cc3c2nc(N)c(C#N)c3N)cc1	-7%	-21%
O=C(Nn1cnc2ccccc2c1=O)c1ccc(F)cc1Cl	-25%	-12%
CC(C)CCC1(CCNC(=O)c2cccs2)CCOC(C)(C)C1 (centres undefined)	3%[7.34 µM]	i[7.34 µM]
CCOC(=O)C(=O)Nc1nc(-c2ccccc2)c(-c2ccccc2)o1	-10%	-17%
COc1ccc(OC)c(S(=O)(=O)N2CCCC(C(=O)NCc3ccco3)C2)c1 (centres undefined)	-6%	i
O=C(CSc1nc2c(oc3ccccc32)c(=O)n1CC1CCCO1)NCc1ccc(F)cc1 (centres undefined)	-10%	i
CCOC(=O)C1CCN(C(=O)C2CC(=O)N(c3ccc(C)cc3)C2)CC1 (centres undefined)	-10%	i
COC(=O)c1ccccc1Oc1cnc2ccccc2n1	-14%	-11%
CCOC(=O)c1c(CN2CCC(C)CC2)n(C)c2cc(Br)c(OC)cc12	-16%	i
COc1cc(/C=N/NC(=O)c2ccc(Cn3cc([N+](=O)[O-])cn3)o2)cc(Br)c1O	4%	8%
CCCCCOC(=O)Cc1c(C)nc(-c2ccccc2)[nH]c1=O	-16%	i
COc1cccc(C(=O)NCC(=O)OCc2ccc(F)cc2Cl)c1	-1%	-10%
COc1ccccc1C(=O)Nc1cccc2nc(C)ccc12	-4%	i
COC(=O)c1ccc(/C=N/N2C(C)CCCC2C)cc1 (centres undefined)	-7%	i
CCCC(=O)N1CCN(c2ccc(NC(=S)NC(=O)c3cccc(C)c3)cc2)CC1	4%	-7%
CCOC(=O)[C@]12CCCC=C1N(CCC1=CCCCC1)C(=O)[C@H](CC(=O)NCC13CC4CC(CC(C4)C1)C3)C2	-24%	-12%
O=C(c1ccccc1)c1cn(CC(=O)N2CCOCC2)c2ccccc12	-18%	0%
CCCSc1ncc(Cl)c(C(=O)Nc2ccc(S(=O)(=O)N3CCCC(C)C3)cc2)n1 (centres undefined)	-14%	-21%
Cc1nn2cc(-c3cccc(Cl)c3)cnc2c1Cl	-23%	-13%
Cc1onc(-c2c(F)cccc2Cl)c1C(=O)Nc1cc(S(=O)(=O)N2CCCCC2)ccc1O	?	?
COc1ccccc1NC(=O)c1ccccc1NS(=O)(=O)c1cccs1	-12%	-5%
O=C(Cn1c(SCC(=O)Nc2ccc(F)cc2)nc2ccccc21)NCc1ccc(Cl)cc1	-23%	?
CC(=O)NCCC(=O)NCc1ccc(F)cc1	-9%	-9%
O=S(=O)(/N=C/c1c(O)ccc2ccccc12)c1ccccc1	-13%	-13%
Cc1cccc(NC(=O)CC2SC(=NC3CCCCC3)NC2=O)c1 (centres undefined)	-29%	/
CC(=O)N1C(c2ccccc2)CC(=O)OC1c1ccc2c(c1)OCO2 (centres undefined)	-3%	/
CCC(C)(C)NC(=O)CN(CC1CCCO1)C(=O)CCC(=O)Nc1nccs1 (centres undefined)	-16%	/
COc1ccc(N2CCN(CC(=O)c3ccccc3)CC2)cc1	-7%	-10%
CC(CC(=O)NCc1ccc(Cl)cc1)S(=O)(=O)c1ccc2c(c1)NC(=O)CO2 (centres undefined)	-17%	i
CC(Cc1c[nH]c2ccccc12)C(=O)O (centres undefined)	-13%	-1%
Cc1cc(CNC(=O)c2ccc(C)c([N+](=O)[O-])c2)c2ccccc2n1	-24%	?
CCCCc1ccc(-c2csc(/C(C#N)=C/c3ccco3)n2)cc1	-9%	-12%
COc1ccc(-c2[nH]c(-c3ccc(C)cc3)nc2SCC(=O)NCc2ccco2)cc1OC	-9%	i
CCn1c(SCC(=O)Nc2cccc(Cl)c2)nnc1-c1nonc1NC(C)=O	-11%	-5%
CC(Sc1nnc(-c2cccs2)n1N)C(=O)NCC1CCCO1 (centres undefined)	-6%	i
Cc1ccc(-c2noc(C3CCCCC3)n2)cc1	-15%	-20%[1.46 µM]
CCO/C(C)=C1\C(=O)N(CC)c2ccccc21	-15%	/
COc1ccc(-c2nnc3ccc(SCC(=O)N4CCCCCC4)nn23)cc1OC	-20%	-5%
Cc1c(Cl)cccc1NC(=O)COC(=O)CCc1nc2ccccc2n1-c1ccccc1	-7%	i
CC(=O)Nc1nc2ccccc2n1Cc1ccc(Cl)cc1	-10%	?
CN(C)c1ccc(C(CNS(=O)(=O)c2cc(F)ccc2F)N2CCOCC2)cc1 (centres undefined)	-6%	-17%
O=C(Nc1ccc(Cl)cc1)c1cnn2c1NC(=C1CC1)C=C2C(F)F	-19%	-17%
CCN(CC)C(=O)c1sc2c(c1C)c(=O)n(-c1ccc(OC)cc1OC)c(=O)n2Cc1cc(C)ccc1C	-22%	-28%
CC(C)c1ccc(NC2(C#N)C(=O)Nc3ccccc32)cc1 (centres undefined)	9%	/
CN(C)CCCOc1ccc(Cl)cc1Br	-6%	i
O=C(Cn1c(=O)oc2cc(S(=O)(=O)NCc3ccccc3)ccc21)N(CCO)Cc1ccccc1	-19%	-18%
CCC(CC)CN1C(Nc2ccccc2)=NC[C@@H]1C	-7%	-12%
CCCCCCc1nc2nc(Cl)c(Cl)nc2[nH]1	-21%	?
O=C(CN1CCN(Cc2ccccc2F)C1=O)NCc1ccccc1	11%	19%
